# From PubChem BioAssay
# PABP FP inh: PABP-poly(A) binding inhibition; inhibition, % at 35 µM; AID 2014; PABP-poly(A) RNA binding, fluorescence polarization; P11940; 290,000 tested, 1% active;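 active = 50% or more with normal probe brightness, or confirmed in later tests; inconclusive = above 50% with abnormal brightness, or retests that disagree; inactive = below 50% or failed in later tests; about a fifth of its hits are not listed in these tables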;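 note: calls also rest on retests at 20 µM and on dose response follow-up; controls were probe without protein and protein plus probe with vehicle; some compounds called inactive have numbers as strong as hits; many hits fall short of the cut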
# Yeast UUG start: alters start codon recognition fidelity in yeast; activity score, % at 18.7 µM; S. cerevisiae UUG-firefly luciferase reporter, luminescence/redox ratio; 350,000 tested, 0.13% active; AID 602363;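 active = replicate mean at a twofold rise or more, about +100% in these data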;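 note: firefly luciferase made from a UUG start codon reports start codon fidelity; reporter light over untreated wells divided by growth signal over untreated wells; some hits fall short of that in this replicate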
# Rce1 inhib: yeast Ras-converting enzyme inhibition; yeast membranes, quenched prenylated peptide cleavage fluorescence; 290,000 tested, 0.27% active; AID 2563; calls only; Q03530;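 active = fall in fluorescence gain of 50% or more versus controls, with final raw signal at or below 3038400; inconclusive = same 50% fall but final raw signal above 3038400; inactive = fall in fluorescence gain under 50%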;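 note: plate controls were neutral control wells for no effect and wells lacking membranes for full effect; tested at 10 µM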
# Target sequence (Q03530 whole entry, looked up): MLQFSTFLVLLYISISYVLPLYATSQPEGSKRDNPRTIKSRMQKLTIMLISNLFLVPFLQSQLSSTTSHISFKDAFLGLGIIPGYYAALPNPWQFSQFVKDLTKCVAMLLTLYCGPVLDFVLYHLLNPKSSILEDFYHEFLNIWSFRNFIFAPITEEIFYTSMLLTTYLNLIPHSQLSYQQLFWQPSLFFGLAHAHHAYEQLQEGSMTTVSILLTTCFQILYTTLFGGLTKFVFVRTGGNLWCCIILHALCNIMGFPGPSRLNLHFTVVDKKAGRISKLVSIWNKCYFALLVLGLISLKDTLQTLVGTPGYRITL
# eIF4H inh: inhibitors of RNA binding by human eIF4H; Q15056; eIF4H fluorescence polarization binding assay; inhibition, % at 35 µM; 290,000 tested, 0.94% active;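 active = 50% or more with normal probe brightness, or confirmed in later tests; inconclusive = above 50% with abnormal brightness, or retests that disagree; inactive = below 50% or failed in later tests; about a fifth of its hits are not listed in these tables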;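 note: calls also rest on retests at 20 µM and on dose response follow-up; 0% = protein and probe with vehicle and 100% = probe without protein; strong numbers were not always called active; many hits fall short of the cut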
# HIV Env fusion: HIV envelope-mediated fusion inhibition; inhibition, % at 12.3 µM; HeLa-JRFL Env/CEM21 cell fusion, luciferase; 360,000 tested, 1.1% active;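 active = mean replicate inhibition score of at least 50 and every replicate individually at or above 50; inconclusive = only one of the two criteria met; inactive = mean below 50 and not all replicates reaching 50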;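 note: 0% = plate neutral controls and 100% = maraviroc near 300 nM; one replicate is shown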
# CSC inhib: cancer stem cell inhibition. cancer stem cell-like cells viability, luminescence. inhibition, % at 7.5 µM. 300,000 tested, 1.1% active. AID 2717;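 active = mean at 75% or more and at least half the replicates too; inconclusive = mean and replicates disagree; tested in HMLE shEcad cells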;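 note: 0% = median of negative and 100% = median of positive control wells; the first replicate is given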
# MT1-MMP act inh: inhibitors of human MT1-MMP activation | P50281 | HT1080 RFP-PRO-GFP cells, GFP/RFP ratio fluorescence, overnight; percent of plate control window, DMSO zero | GFP/RFP ratio change, % at 20 µM | 360,000 tested, 0.061% active;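 active = GFP/RFP ratio change of at least 30% with cell ATP level not reduced by more than half and red fluorescence within 50% of control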; note: strong numbers were not always called active
#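 Test system: HT1080 cells expressing an RFP-PRO-GFP fluorescent reporter construct / Compound dosing: single-point 20 µM compound, 1% DMSO / Schedule: cells overnight before dosing, compound overnight, 37 °C, 5% CO2 / Evaluation: GFP/RFP fluorescence ratio / Control set: DMSO and RFP-L50D-GFP cell wells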
# eIF4H inh retest: recorded beside eIF4H inh, whose call it bears; inhibition, %; compound at 20 µM; confirmation average;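 mean of two retest wells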
# PABP FP inh retest: also measured in PABP FP inh; calls as there; inhibition, %; compound at 20 µM; confirmation repeats;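 mean of two retest wells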
# MT1-MMP act inh RFP: also measured in MT1-MMP act inh; calls as there; RFP signal change, %; measured here: RFP expression control read;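 0 = vehicle wells; hits needed this value within 50% of zero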
# * hit, by the source's call; i = inactive; ? = inconclusive; nt = no result given.
SMILES,PABP FP inh,Yeast UUG start,Rce1 inhib,eIF4H inh,HIV Env fusion,CSC inhib,MT1-MMP act inh,MT1-MMP act inh RFP,others
Nc1ccc2nc(-c3ccccc3)c(-c3ccccc3)nc2c1,28,-8,i,70*,-9,-16,-35,-4,eIF4H inh retest=54*;PABP FP inh retest=34
CC(C)CN(C(=O)CSc1nn(-c2ccc(Cl)cc2)c(=S)s1)C1CCS(=O)(=O)C1 (centres undefined),14,nt,i,2,?,-5,1,0,
COc1ccc(OC)c2sc(N3CCCCC3)nc12,-2,0,i,-4,-102,10,3,2,
CCOc1ccc(CN2CCNC(=O)C2CC(=O)NCCC2=CCCCC2)cc1 (centres undefined),10,6,i,5,5,-9,-4,2,
CN(Cc1ccc(F)cc1)C(=O)c1cccc(S(=O)(=O)NCc2ccccc2)c1,nt,nt,i,nt,8,0,2,-4,
O=c1oc(-c2ccccc2)cc(Cl)c1Cl,-3,-54,i,1,-137,26,-5,-7,
C[C@@]12C(=O)N(c3cccc(F)c3)C(=O)N1[C@H](c1ccc(Cl)cc1)[C@@H]1C(=O)N(C3CCCCC3)C(=O)[C@@H]12,nt,-10,i,nt,1,10,0,-2,
CC(=O)N(CN1C(=O)c2ccccc2C1=O)c1ccccc1,-1,-15,i,5,-18,-8,0,7,
CCOCC(=O)Nc1ccc(S(=O)(=O)NCC2CCCO2)cc1 (centres undefined),0,-7,i,1,16,5,-2,-8,
O=C(O)c1cscn1,2,-21,i,-4,-18,-4,-2,-1,
Cc1ccc(S(=O)(=O)/N=c2\scc(C)n2C)cc1,nt,-4,i,nt,-20,6,0,3,
OC1(c2ccccc2Cl)NN=C2CCCCCN21 (centres undefined),?,nt,i,10,7,-9,-2,0,
O=C(Nc1cccc(Cl)c1)c1csc([C@H]2C[C@H](O)[C@@H](CO)O2)n1,nt,-37,nt,nt,-56,nt,2,-3,
O=C(CNS(=O)(=O)c1ccc(Br)s1)NCC1COc2ccccc2O1 (centres undefined),8,-22,i,-2,10,2,-2,-3,
Cc1cc(=O)oc2c3c(cc(OCC(=O)NC4CC4)c12)OC(C)(C)CC3,15,-8,i,-6,nt,-13,1,-1,
COCCNS(=O)(=O)c1ccc(Cl)c(C(=O)NC2CCN(Cc3ccccc3)CC2)c1,1,-9,nt,-7,4,7,1,-1,
N#CCCn1nc(-c2ccccc2)cc1-n1c(C(F)(F)F)nc2ccccc21,-3,-14,i,-3,nt,4,-7,-10,
O=C(CSc1nnc(-c2ccccc2)o1)NC1CC1,nt,-19,nt,nt,2,-21,-1,-2,
FC(F)(F)c1nc2nncn2c2c1CCCCC2,8,-17,i,-3,nt,-2,-2,-4,
COc1ccc(NC(=O)c2ccc(S(=O)(=O)N3CCCCC3)cc2)c(OC)c1,3,-10,nt,-5,-4,-9,0,0,
COc1cccc(C2=NOC(C(=O)NC(C)C)C2)c1 (centres undefined),-6,-18,i,-11,4,-6,-2,2,
CC(Sc1n[nH]c(N)n1)C(=O)Nc1ccccc1-c1ccccc1 (centres undefined),4,nt,i,3,6,-10,0,5,

# Reprinted at random: 3 entries already listed, in no set order.
SMILES,PABP FP inh,Yeast UUG start,Rce1 inhib,eIF4H inh,HIV Env fusion,CSC inhib,MT1-MMP act inh,MT1-MMP act inh RFP,others
O=C(CSc1nnc(-c2ccccc2)o1)NC1CC1,nt,-19,nt,nt,2,-21,-1,-2,
CCOCC(=O)Nc1ccc(S(=O)(=O)NCC2CCCO2)cc1 (centres undefined),0,-7,i,1,16,5,-2,-8,
CC(C)CN(C(=O)CSc1nn(-c2ccc(Cl)cc2)c(=S)s1)C1CCS(=O)(=O)C1 (centres undefined),14,nt,i,2,?,-5,1,0,

# Structural class: the compounds so far with two or more sulfur atoms
SMILES,PABP FP inh,Yeast UUG start,Rce1 inhib,eIF4H inh,HIV Env fusion,CSC inhib,MT1-MMP act inh,MT1-MMP act inh RFP,others
CC(C)CN(C(=O)CSc1nn(-c2ccc(Cl)cc2)c(=S)s1)C1CCS(=O)(=O)C1 (centres undefined),14,nt,i,2,?,-5,1,0,
Cc1ccc(S(=O)(=O)/N=c2\scc(C)n2C)cc1,nt,-4,i,nt,-20,6,0,3,
O=C(CNS(=O)(=O)c1ccc(Br)s1)NCC1COc2ccccc2O1 (centres undefined),8,-22,i,-2,10,2,-2,-3,
